Source: PubChem BioAssay
Arbovirus anti: antivirals against arbovirus infection, primary screen, cell-based, full library, 10K replicate subset; arbovirus infection cell-based antiviral screen; inhibition, % at 10 µM; 200,000 compounds, 0.37% hits; AID 1251, 2008;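 active = inhibition from about 30%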;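 also: bluetongue infection of BSR cells; cell survival read as ATP light after 72 h; 0% = infected wells without compound and 100% = uninfected wells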
YopH inh: YopH tyrosine phosphatase inhibitors, primary screen, biochemical, fluorescence Ex485/Em525 | YopH tyrosine phosphatase [Yersinia enterocolitica] | inhibition, %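 (about 10 µM by stock and volumes)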 | 140,000 compounds, 0.16% hits | AID 898, 2007;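 active = inhibition of 50% or more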;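 also: controls were vehicle for no effect and minimum signal wells for full effect; inactives centre near -20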
Mtb bLac sens: beta-lactam sensitization of Mtb H37Rv, H37Rv; M. tuberculosis H37Rv growth with meropenem, percent inhibition; hits of this screen are not shown here; inhibition, % at 25 µM; 330,000 compounds, 0.27% hits; AID 434955, 2010;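 active = about 74% or more and at least 40 points above the plate without the antibiotic, then above 30% in a dose series; inconclusive = first-round hits that could not be retested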;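 also: growth measured after seven days incubation then overnight dye step; 0% = bacteria only wells and 100% = bacteria with antibiotic; twin plates without the antibiotic show which effects depend on it; some results filed as inactive read as strong as hits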
RecA intein inh: Mtb RecA intein splicing inhibitors, primary screen, biochemical, fluorescence, HTS. inhibition, %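 (about 9 µM by stock and volumes)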. 290,000 compounds, 0.75% hits. Protein RecA (Mycobacterium tuberculosis (strain ATCC 25618 / H37Rv)), P9WHJ3. AID 2221, 2009. cell-free RecA intein splicing; in the data active = inhibition above about 30%; inconclusive = no clear call, values can overlap the other calls;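 also: 0% = vehicle wells and 100% = reference inhibitor control wells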
Target sequence (P9WHJ3 whole entry, looked up): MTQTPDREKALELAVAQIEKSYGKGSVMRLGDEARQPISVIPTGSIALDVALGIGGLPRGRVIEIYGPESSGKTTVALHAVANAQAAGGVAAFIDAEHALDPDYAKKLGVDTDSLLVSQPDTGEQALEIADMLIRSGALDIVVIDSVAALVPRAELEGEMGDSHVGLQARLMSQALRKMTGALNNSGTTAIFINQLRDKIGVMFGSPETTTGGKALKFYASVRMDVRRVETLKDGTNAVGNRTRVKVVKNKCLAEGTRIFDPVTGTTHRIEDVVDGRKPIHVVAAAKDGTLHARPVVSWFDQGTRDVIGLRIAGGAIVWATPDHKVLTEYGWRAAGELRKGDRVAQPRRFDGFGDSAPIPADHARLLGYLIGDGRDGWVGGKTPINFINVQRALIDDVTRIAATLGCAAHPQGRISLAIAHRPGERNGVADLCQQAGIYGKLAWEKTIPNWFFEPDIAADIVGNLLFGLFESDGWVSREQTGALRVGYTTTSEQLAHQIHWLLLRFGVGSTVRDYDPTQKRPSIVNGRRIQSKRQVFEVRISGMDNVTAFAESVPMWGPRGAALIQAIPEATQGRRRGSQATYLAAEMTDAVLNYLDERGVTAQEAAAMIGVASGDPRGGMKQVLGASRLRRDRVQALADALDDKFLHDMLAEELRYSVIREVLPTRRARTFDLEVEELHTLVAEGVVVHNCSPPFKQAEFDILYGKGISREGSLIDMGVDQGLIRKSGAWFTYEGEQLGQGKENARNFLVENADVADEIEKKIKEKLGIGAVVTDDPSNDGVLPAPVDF
Mtb growth: M. tuberculosis H37Rv growth inhibitors, H37Rv strain (AID 1626); M. tuberculosis H37Rv growth inhibition; higher % means a stronger effect; one-dose inhibition, % at 10 µM; IC50 in µM for titrated hits; 220,000 compounds, 0.95% hits;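 active = confirmed in a dose series; inconclusive = inhibition above 80% but not taken into the dose series; inactive = below 80% or under 30% at every dose of the series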;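 also: bacteria incubated seven days before Alamar blue readout; 0% = bacteria only wells and 100% = bacteria with antibiotic wells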
Arbovirus anti repeat: also measured in Arbovirus anti; calls as there; inhibition, %; measured here: 10K subset replicate screen; many hits read low in the repeat;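 first of two repeat runs on a subset; 0% = infected and 100% = uninfected wells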
The depositor's hits bear a star; ? = inconclusive; / = no result given. Not all compounds are listed (hit frequency here may not be typical).

SMILES	Arbovirus anti	YopH inh	Mtb bLac sens	RecA intein inh	Mtb growth	others
CCS(=O)(=O)NCC(c1ccco1)N1CCN(c2ccccc2F)CC1 (centres undefined)	2	-25	7	-3.7	-11%
CCc1ccc(N2CC(O)(c3cccs3)[N+]3=C2SCCC3)cc1 (centres undefined)	10	/	-10	-2.1	11%
Cc1cc(C)c(-n2c(SCCS(=O)(=O)c3ccc(F)cc3)n[nH]c2=O)c(C)c1	/	/	2	1.9	-8%
O=C(c1ccco1)N1CCN(C(c2ccccn2)c2nnnn2C2CCCC2)CC1 (centres undefined)	0	-14	3	1.1	-9%
COc1ccc(-c2csc(NC(=O)COC(=O)C3=COCCO3)n2)cc1	-8	/	12	3.3	5%
Cc1ccc(OCCC(=O)OCC(=O)Nc2ccc(Cl)cn2)cc1	1	-16	4	/	-7%
CCc1ccccc1NC(=O)N[C@H](C(=O)O)C(C)C	3	-21	-14	-1.8	4%
CCn1c(Cc2ccccc2)nnc1SCC(=O)Nc1nc(C)c(C)s1	-1	-36	-4	-0.3	-19%
CCOC(=O)C1=C(c2ccccc2)N=c2s/c(=C\c3cccc(O)c3)c(=O)n2C1c1cccs1 (centres undefined)	-37	-19	100	6.5	/
Cn1c(=O)oc2cc(S(=O)(=O)NCCC(=O)NC3CCCc4ccccc43)ccc21 (centres undefined)	3	-32	-5	-1.9	5%
CC(C)CN(C(=O)CN(C)C(=O)Cc1ccccc1Cl)c1c(N)n(CC(C)C)c(=O)[nH]c1=O	/	/	2	0.7	/
COc1ccc(-c2noc(-c3ccccc3C(=O)Nc3cccnc3)n2)cc1	-4	-20	-2	1.2	12%
O=C(c1cnsn1)N1CCC(CO)(Cc2ccc(Cl)cc2)CC1	4	/	-4	-0.3	-2%
CCOC(=O)c1cc2c(=O)n3ccccc3nc2n(CC(C)C)c1=NC(=O)c1c(-c2c(F)cccc2Cl)noc1C	-12	-21	-6	-35	8%
O=C(O)COc1ccccc1-c1nc(-c2ccccc2)c(-c2ccccc2)[nH]1	/	/	-6	6.5	/
COc1ccc(C(=O)/C=C/Nc2cccc(O)c2)cc1	0	-13	-9	-4.0	-2%
COc1cccc(NC(=O)c2ccccc2-c2nc(-c3ccc(F)cc3)no2)c1	-3	18	-6	0.3	1%
O=C(OCc1cc2ccccc2[nH]c1=O)c1ccc([N+](=O)[O-])cc1	/	/	10	-8.5	-9%
O=C(NC1(C(F)(F)F)C(=O)Nc2c1c(=O)[nH]c(=O)n2-c1ccccc1)c1cccnc1 (centres undefined)	3	-65	-4	/	-3%
CC1Oc2ccccc2C(=O)N(CC(=O)c2ccc3c(c2)OCCO3)C1=O (centres undefined)	/	/	2	4.3	/
CC1=C(C(=O)OCC2CCCO2)C(c2ccc(F)cc2)NC(=O)N1 (centres undefined)	3	/	0	-0.1	-13%
C=CCOC(=O)C1=C[C@@H](c2ccc3c(c2)OCO3)C[C@@H](OCCCCO)O1	/	/	-7	1.5	1%
COc1ccc(OCC(=O)NNC(=O)c2c(-c3ccccc3Cl)noc2C)cc1	/	/	-2	-5.1	-6%
O=c1c(C(c2ccccc2)c2c(O)nc3n(c2=O)CCCS3)c(O)nc2n1CCCS2	2	-44	2	-0.9	7%
Cc1ccccc1S(=O)(=O)Cc1ccc(C(=O)NCCN(CC(C)C)CC(C)C)o1	/	/	4	-0.4	/

Other structures:
SMILES	Arbovirus anti	YopH inh	Mtb bLac sens	RecA intein inh	Mtb growth	others
O=Cc1c[nH]c2ccc(C(=O)c3ccccc3)cc12	/	/	8	-2.6	/
CCn1nc(C)cc1C(=O)N1CCc2c([nH]c3ccccc23)C1c1cc(F)ccc1F (centres undefined)	14	/	-1	12	6%
CC1CCCN(CCCOc2ccc(Cl)cc2Br)C1 (centres undefined)	-10	-15	2	4.4	3%
COC(=O)c1ccc(COC(=O)c2cccn2C)o1	/	/	-6	3.1	/
COCCCNC(=O)C1CCC(CNS(=O)(=O)c2ccc3c(c2)N(C(C)=O)CCO3)CC1 (centres undefined)	/	/	23	-2.4	/
CCOC(=O)NCCOC(=O)Nc1ccc(Cl)cc1	4	/	1	0.1	3%
CC(=O)Nc1ccc(S(=O)(=O)Nc2nc(CN3CCOCC3)nc3sc4c(c23)CCCC4)cc1	1	0	-9	/	-14%
COc1ccc(S(=O)(=O)N(C)C)cc1NCC(=O)Nc1ccc(F)cc1F	4	0	4	-1.5	-2%
CN(CC(=O)Nc1ccccc1C(F)(F)F)C(=O)c1ccc(-c2ccc(Cl)cc2)o1	/	/	-1	-2.5	/
Cc1cccc(OC(C)C(=O)N2CCCN(C)CC2)c1C (centres undefined)	/	/	4	0.5	/
Cc1ccc(Cl)cc1-n1ncc2c(NNC(=O)c3ccco3)ncnc21	14	/	6	-6.0	-2%
Cc1ccc(S(=O)(=O)NC(C)(C)CSc2nnc(Nc3ccccc3)s2)cc1	14	2	-6	6.9	36%
O=C(NC1CCS(=O)(=O)C1)/C(=C\c1ccccc1)NC(=O)c1ccccc1 (centres undefined)	2	-8	-2	2.4	-2%
CCN1C(=O)/C(=C/c2cn(C)nc2C)SC1=S	3	-32	0	2.4	-2%
CC(NC(=O)CC(O)(C(F)(F)F)C(F)(F)F)c1ccccc1 (centres undefined)	4	-14	6	1.1	0%
Cc1ccc(NC(=O)Cn2nnc(C(=O)NCc3cccs3)c2N)cc1F	/	/	-9	1.4	/
Cc1cc(C)c(S(=O)(=O)Nc2cccc(S(=O)(=O)N3CCOCC3)c2)c(C)c1	/	/	-1	-0.8	/
CCOC(=O)NC(=O)C(=CNc1ccccc1C)C(=O)NC(=O)OCC	8	-32	3	/	-1%
COc1cc(/C=C/C(=O)OCC(=O)NC(=O)NC(C)(C)C)ccc1O	/	/	0	-9.2	-2%
Brc1ccc(-c2nnc(-c3ccccc3)c(N3CCSCC3)n2)cc1	26	-36	17	12	1%
O=S(=O)(Nc1nc(CN2CCOCC2)nc2sc3c(c12)CCCC3)c1cc(F)ccc1F	5	-43	-1	/	1%
CCCOC(=O)c1ccc(NC(=O)C(CC)CC)cc1	-9	-16	7	1.4	1%
Cn1c(=O)oc2cc(S(=O)(=O)N3CCCC3)ccc21	8	-42	-4	-1.4	3%	Arbovirus anti repeat=1
O=C(O)Cn1ncn(-c2ccc(OC(F)(F)F)cc2)c1=O	-2	/	-5	-1.5	6%
Brc1ccc(C2N3CCCN23)cc1 (centres undefined)	7	-13	-4	-1.6	2%

Gathered by group, those above with an NH in an aromatic ring.
SMILES	Arbovirus anti	YopH inh	Mtb bLac sens	RecA intein inh	Mtb growth	others
Cc1cc(C)c(-n2c(SCCS(=O)(=O)c3ccc(F)cc3)n[nH]c2=O)c(C)c1	/	/	2	1.9	-8%
CC(C)CN(C(=O)CN(C)C(=O)Cc1ccccc1Cl)c1c(N)n(CC(C)C)c(=O)[nH]c1=O	/	/	2	0.7	/
O=C(O)COc1ccccc1-c1nc(-c2ccccc2)c(-c2ccccc2)[nH]1	/	/	-6	6.5	/
O=C(OCc1cc2ccccc2[nH]c1=O)c1ccc([N+](=O)[O-])cc1	/	/	10	-8.5	-9%
O=C(NC1(C(F)(F)F)C(=O)Nc2c1c(=O)[nH]c(=O)n2-c1ccccc1)c1cccnc1 (centres undefined)	3	-65	-4	/	-3%
O=Cc1c[nH]c2ccc(C(=O)c3ccccc3)cc12	/	/	8	-2.6	/
CCn1nc(C)cc1C(=O)N1CCc2c([nH]c3ccccc23)C1c1cc(F)ccc1F (centres undefined)	14	/	-1	12	6%

Other compounds follow:
SMILES	Arbovirus anti	YopH inh	Mtb bLac sens	RecA intein inh	Mtb growth	others
O=C(CSc1nnc(-c2cccs2)n1Cc1ccccc1)NCc1ccc2c(c1)OCO2	-5	-13	-4	2.2	5%
CC1CCN(S(=O)(=O)c2ccc(NC(=O)C3CC3)cc2)CC1	/	/	-1	1.4	/
COc1ccc(C(C)=O)cc1COc1nc(C)nc2ccccc12	2	/	-5	0.6	9%
O=c1c2ccccc2nc(-c2ccco2)n1-c1ccccc1	-13	-4	-1	-2.8	-1%
CCOC(=O)c1c(NC(=O)CCS(=O)(=O)c2ccccc2)sc2c1CCN(C)C2	/	/	?	1.9	/
CCCc1ccc(C(C)NC(=O)c2cnccn2)cc1 (centres undefined)	7	-6	2	-0.7	8%
CSc1ccc(CC(=O)N2CCC(n3nccc3NC(=O)C3CC3)CC2)cc1	/	/	-2	-1.0	/
CCCCn1c(O)c(C(C)=NCCCN(C)C)c(=O)[nH]c1=O	15	6	1	2.5	-5%
CCc1nc2cccnc2n1-c1ccc(CC(=O)NCCOC)cc1	/	/	3	0.8	/
O=C(c1ccc(-c2ccccc2)cc1)N1CCN(c2ncccn2)CC1	-6	-19	6	/	-9%
COC(=O)c1cc(OC)c(OC)cc1NC(=O)CCCCCN1C(=O)CCC1=O	2	15	-6	2.9	-4%
CC(C)CC(c1nnnn1C(C)(C)C)N1CCN(C2CCCC2)CC1 (centres undefined)	13	9	-2	1.3	8%
O=C(NCC(NS(=O)(=O)OCC(Cl)(Cl)Cl)c1ccccc1)C(F)(F)F (centres undefined)	/	/	-18	2.1	/
COc1ccc(N(CC(=O)NC2CC3CCC2C3)S(=O)(=O)c2ccc(C)cc2)cc1 (centres undefined)	/	/	-4	1.7	/
Cc1nc2c(-c3ccc(F)cc3)cnn2c(N)c1-c1ccccc1	/	/	89	14	/
Clc1nccc(N2CCN(c3ccccc3Cl)CC2)n1	/	/	-6	8.9	/
O=C(NC1CCCCCC1)c1cc2c(=O)n3ccccc3nc2s1	/	/	1	-64	/
O=C1C=CC(=O)N1c1cccc(-c2ccccc2)c1	/	/	70	14	73%
O=C(Nc1cccc(F)c1)/C(=C\c1cccnc1)NC(=O)c1ccco1	-1	/	2	0.4	10%
O=C(Cn1c(NCCCl)nc2ccccc21)c1ccc(Br)cc1	/	/	4	2.5	/

Entries shown so far with a CF3 group, in the order listed:
SMILES	Arbovirus anti	YopH inh	Mtb bLac sens	RecA intein inh	Mtb growth	others
O=C(NC1(C(F)(F)F)C(=O)Nc2c1c(=O)[nH]c(=O)n2-c1ccccc1)c1cccnc1 (centres undefined)	3	-65	-4	/	-3%
CN(CC(=O)Nc1ccccc1C(F)(F)F)C(=O)c1ccc(-c2ccc(Cl)cc2)o1	/	/	-1	-2.5	/
CC(NC(=O)CC(O)(C(F)(F)F)C(F)(F)F)c1ccccc1 (centres undefined)	4	-14	6	1.1	0%
O=C(O)Cn1ncn(-c2ccc(OC(F)(F)F)cc2)c1=O	-2	/	-5	-1.5	6%
O=C(NCC(NS(=O)(=O)OCC(Cl)(Cl)Cl)c1ccccc1)C(F)(F)F (centres undefined)	/	/	-18	2.1	/
